# Yeast UUG start = modulators of start codon recognition fidelity in yeast | activity score, % at 18.7 µM | AID 602363 | 350,000 compounds, 0.13% hits | S. cerevisiae UUG-firefly luciferase reporter, luminescence/redox ratio;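 active means replicate mean at a twofold rise or more, about +100% in these data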;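 further: firefly luciferase made from a UUG start codon reports start codon fidelity; reporter light over untreated wells divided by growth signal over untreated wells; some hits fall short of that in this replicate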
# Rce1 inhib = blocks yeast Ras-converting enzyme; yeast membranes, quenched prenylated peptide cleavage fluorescence; 290,000 compounds, 0.27% hits; calls only; Q03530;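 active means fall in fluorescence gain of 50% or more versus controls, with final raw signal at or below 3038400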;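 further: plate controls were neutral control wells for no effect and wells lacking membranes for full effect; tested at 10 µM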
# Target sequence (Q03530 whole entry, looked up): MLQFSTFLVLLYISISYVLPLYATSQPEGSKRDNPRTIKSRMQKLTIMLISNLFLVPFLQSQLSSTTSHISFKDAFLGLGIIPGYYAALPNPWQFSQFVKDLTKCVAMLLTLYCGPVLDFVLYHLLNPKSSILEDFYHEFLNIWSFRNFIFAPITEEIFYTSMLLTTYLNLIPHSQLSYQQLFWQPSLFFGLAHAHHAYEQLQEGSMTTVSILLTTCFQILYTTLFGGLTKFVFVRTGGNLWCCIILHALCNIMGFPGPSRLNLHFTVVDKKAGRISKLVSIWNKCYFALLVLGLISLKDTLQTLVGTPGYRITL
# PABP FP inh = PABP-poly(A) binding inhibition; 290,000 compounds, 1% hits; PABP-poly(A) RNA binding, fluorescence polarization; AID 2014; inhibition, % at 35 µM;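 active means 50% or more with normal probe brightness, or confirmed in later tests; about a fifth of its hits are not listed in these tables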;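 further: calls also rest on retests at 20 µM and on dose response follow-up; controls were probe without protein and protein plus probe with vehicle; some compounds called inactive have numbers as strong as hits; many hits fall short of the cut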
# MT1-MMP act inh = MT1-MMP (human) activation inhibition | P50281 | HT1080 RFP-PRO-GFP cells, GFP/RFP ratio fluorescence, overnight; percent of plate control window, DMSO zero | GFP/RFP ratio change, % at 20 µM | 360,000 compounds, 0.061% hits | AID 651647;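 active means GFP/RFP ratio change of at least 30% with cell ATP level not reduced by more than half and red fluorescence within 50% of control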; further: strong numbers were not always called active
#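 Compound: 20 µM single dose, 1% DMSO / System: HT1080 RFP-PRO-GFP cells / Controls: DMSO and RFP-L50D-GFP cell wells / Read-out basis: GFP/RFP fluorescence ratio / Schedule: overnight compound exposure at 37 °C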
# Env fusion inh = blocks HIV Env-driven cell-cell fusion | HeLa-JRFL Env/CEM21 cell fusion, luciferase | inhibition, % at 12.3 µM | 360,000 compounds, 1.1% hits;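 active means mean replicate inhibition score of at least 50 and every replicate individually at or above 50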;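 further: 0% = plate neutral controls and 100% = maraviroc near 300 nM; one replicate is shown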
# eIF4H FP inh = inhibitors of RNA binding by human eIF4H; 290,000 compounds, 0.94% hits; inhibition, % at 35 µM; eIF4H fluorescence polarization binding assay; Q15056; AID 2012;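 active means 50% or more with normal probe brightness, or confirmed in later tests; about a fifth of its hits are not listed in these tables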;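 further: calls also rest on retests at 20 µM and on dose response follow-up; 0% = protein and probe with vehicle and 100% = probe without protein; strong numbers were not always called active; many hits fall short of the cut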
# CSC inhib = cancer stem cell inhibition | cancer stem cell-like cells viability, luminescence | inhibition, % at 7.5 µM | 300,000 compounds, 1.1% hits;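 active means mean at 75% or more and at least half the replicates too; tested in HMLE shEcad cells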;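 further: 0% = median of negative and 100% = median of positive control wells; the first replicate is given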
# MT1-MMP act inh RFP = recorded beside MT1-MMP act inh, whose call it bears; RFP signal change, %; measured here: RFP expression control read;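 0 = vehicle wells; hits needed this value within 50% of zero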
# Starred values were filed as active, the others as inactive; i = inactive; x = not tested or not shown; & = joins results of further samples.
no.	Structure	Yeast UUG start	Rce1 inhib	PABP FP inh	MT1-MMP act inh	MT1-MMP act inh RFP	Env fusion inh	eIF4H FP inh	CSC inhib
1	Cc1cccc(-n2ncc3c(Nc4c(C)n(C)n(-c5ccccc5)c4=O)ncnc32)c1	-16	i	-3	1	-3	x	4	4
2	c1ccc(CN(Cc2ccccc2)c2ncnc3c2nnn3Cc2ccccc2)cc1	5	i	-6	-4	-3	4	2	6
3	Cc1nc2ccccc2c(=O)n1-c1ccc(NS(=O)(=O)c2cc(F)ccc2F)cc1	-18	i	x	2	-2	-11	x	-9
4	COc1ccc(C(=O)C(C)Oc2cccc(NC(=O)c3cccc([N+](=O)[O-])c3)c2)cc1 (stereo not given)	-10	i	2	6	-14	0	-4	1
5	CCCCn1cnc2c(oc3nc4c(cc32)CCCC4)c1=O	-29	i	-4	-1	2	-35	5	-4
6	C=CCNC(=O)c1onc(CSc2ccc(F)cc2)c1C(=O)O	-11	i	-9	x	x	-11	-11	7
7	O=C(CNC(=O)c1ccc(Br)cc1)c1ccccc1	-9	i	12	-1	-1	-37	6	-14
8	Cc1ccc(-c2nc(CSCC(=O)Nc3cc(C)on3)c(C)o2)cc1	-9	i	-2	0	-8	8	-10	-9
9	O=c1[nH]c2ccccc2n1C1=CCCC1	-16	i	-3	5	2	x	7	-4
10	CCSc1nc(=S)cc(C)[nH]1	-6	i	5	-4	-2	3	-2	0
11	C[C@H]1CN([C@@H](C)CO)C(=O)c2cccc(NC(=O)Nc3ccc(C(F)(F)F)cc3)c2O[C@@H]1CN(C)C(=O)Nc1ccc(F)cc1	-1&0	x	x	7	-5	8	x	58
12	COC(=O)CNC(=O)CNC(=O)c1nn(-c2ccc(OC)c(OC)c2)c(=O)c2ccccc12	1	i	15	4	0	8	1	2
13	O=C(COc1coc(CN2CCc3ccccc3C2)cc1=O)Nc1ccc(F)cc1	3	i	x	2	2	1	x	-7
14	O=S(=O)(c1ccccc1)c1nc(NCc2ccccc2)sc1Cl	-23	i	6	0	-9	x	-6	-8
15	Cc1ccc(S(=O)(=O)CCc2nnc(NC(=O)CCl)s2)cc1C	x	i	6	2	0	0	-10	-4
16	O=C(c1cc2ncc(Br)cn2n1)N1CCOCC1	-12	i	1	0	4	x	-2	-10
17	COc1ccc(CCNC(=O)c2ccccc2C(=O)NCCc2ccc(OC)cc2)cc1	-9	x	x	2	1	-20	x	-10
18	O=C(NCc1ccccc1)N1CCN(c2ccc(F)cc2)CC1	-14	i	26	2	-1	x	-4	1
19	CCNc1nc2c(c(=O)[nH]c(=O)n2C)n1CC(C)C	-14	i	5	2	4	9	-5	-6
20	S=c1nc(C2COc3ccccc3O2)[nH][nH]1 (stereo not given)	-11	i	-6	2	1	-3	6	4

# Single records, from the list above. Values in the order: Yeast UUG start, Rce1 inhib, PABP FP inh, MT1-MMP act inh, MT1-MMP act inh RFP, Env fusion inh, eIF4H FP inh, CSC inhib
# Cc1ccc(S(=O)(=O)CCc2nnc(NC(=O)CCl)s2)cc1C reads x, i, 6, 2, 0, 0, -10, -4
# C=CCNC(=O)c1onc(CSc2ccc(F)cc2)c1C(=O)O reads -11, i, -9, x, x, -11, -11, 7
# O=S(=O)(c1ccccc1)c1nc(NCc2ccccc2)sc1Cl reads -23, i, 6, 0, -9, x, -6, -8

# The list goes on.
no.	Structure	Yeast UUG start	Rce1 inhib	PABP FP inh	MT1-MMP act inh	MT1-MMP act inh RFP	Env fusion inh	eIF4H FP inh	CSC inhib
21	O=C(CSc1ccc(-c2cccnc2)nn1)Nc1ccccc1F	-13	i	3	2	0	3	-2	-9
22	CC1(C)N=C(N)NC(Nc2ccccc2)=N1	-12	x	4	-3	0	-32	12	-15
23	Cc1cc(Cl)c2ccc3ccccc3c2n1	x	i	19	2	2	-4	-4	-4
24	COc1ccc(Cl)cc1NC(=O)C1CC(=O)N(C2CCCCC2)C1 (stereo not given)	3	i	-8	2	5	11	-14	-1
25	CCN(CCCNC(=O)CN1C(=O)COc2ccccc21)c1ccccc1	-33	x	3	-4	1	21	-7	-6
26	Cc1ccc(NS(=O)(=O)c2ccc(C(=O)N3CCC3)cc2)cc1	-8	i	x	1	-4	-4	x	1
27	O=C(NCC(=O)N1CCOCC1)c1ccc(Cl)cc1	-12	i	2	0	1	17	-2	-7
28	C[C@H](CO)N1C[C@H](C)[C@@H](CN(C)S(=O)(=O)c2ccc(F)cc2)Oc2c(NC(=O)Nc3ccccc3)cccc2C1=O	26&-9	x	x	-5	-2	-4	x	-12
29	COc1ccc(N2CCN(C(=O)CSc3nc4ccccc4c(=O)[nH]3)CC2)cc1	6	i	5	0	2	2	-7	2
30	CCC(OC(=O)c1nsc(Cl)c1Cl)C(=O)NCCc1ccccc1 (stereo not given)	-1	x	-4	5	-1	3	-4	-11
31	Cc1ccc(/C(CSc2nccn2-c2ncc(C(F)(F)F)cc2Cl)=N\O)cc1	-10	i	1	-15	-26	x	-14	x
32	O=C(O)C1CCCCC1C(=O)NCc1ccccc1 (stereo not given)	-11	i	0	4	1	-30	-3	0
33	N#CCCN1CCN(S(=O)(=O)c2ccc(S(=O)(=O)NCc3ccccc3)cc2)CC1	-6	i	-1	-1	1	1	-4	1
34	C=CCn1c(N2CCN(c3ccc(OC)cc3)CC2)nc2c1c(=O)n(C)c(=O)n2C	x	i	16	-3	-12	28	6	-6
35	Cc1cccc(NC(=O)NC2CCCCCCC2)c1C	-2	i	3	-3	0	9	4	2
36	O=C(CN1C(=O)NC2(CCCCCCC2)C1=O)NC1CCCc2ccccc21 (stereo not given)	x	i	4	0	1	18	4	-7
37	CC1(C)CCCC2(C)C(OCCO)=CC(=O)C=C12 (stereo not given)	-16	x	x	2	1	12	x	x
38	CCOc1ccc(N2CC(C(=O)Nc3nnc(Cc4ccccc4)s3)CC2=O)cc1 (stereo not given)	-10	x	0	2	1	-10	6	-16
39	CC(C)(C)NC(=O)CSc1nnc(CN2CCCCCC2=O)n1-c1ccccn1	2	i	13	1	2	-20	3	-5
40	COc1ccc2nc(SCC(=O)Nc3ccc(S(=O)(=O)Nc4nccc(C)n4)cc3)[nH]c2c1	-13	i	6	-4	1	-79	-8	-13

# (more compounds)
no.	Structure	Yeast UUG start	Rce1 inhib	PABP FP inh	MT1-MMP act inh	MT1-MMP act inh RFP	Env fusion inh	eIF4H FP inh	CSC inhib
41	CC(=O)N/C(=C/c1ccc([N+](=O)[O-])cc1)C(=O)O	x	x	-3	3	2	6	-3	-8
42	COc1cccc(CNCCc2c[nH]c3ccccc23)c1OCc1ccccc1F	0	i	0	-7	-17	79*	-8	53
43	N#Cc1ccsc1NC(=O)CN1CCN(S(=O)(=O)c2ccc3ccccc3c2)CC1	-36	i	-5	-2	-2	x	21	2
44	Cc1ccc(OCCn2cc(/C=C3\C(=O)NN(c4ccccc4)C3=O)c3ccccc32)cc1	x	i	-6	1	2	-41	-2	10
45	CC(C)CC1Nc2ncnc(N3CCOCC3)c2N(Cc2ccc(Cl)cc2)C1=O (stereo not given)	-3&-2	x	x	7&3	0&3	-18&1	x	x
46	O=C(CN1C(=O)NC2(CCCC2)C1=O)NNC(=O)c1ccc(F)cc1	x	i	x	1	8	-3	x	x
47	COc1ccc(CN(C)C(=O)c2cccc(S(=O)(=O)NCc3ccccc3)c2)cc1F	-2	x	x	4	3	13	x	x
48	OC1CC(c2ccco2)NC2(CCCCC2)C1 (stereo not given)	-14	i	12	-3	2	x	0	-15
49	CC(C)(C)OC(=O)N1CCCN(C(=O)c2ccc(Cl)cc2)CC1	-7	i	0	-1	-1	19	2	-5
50	N#Cc1ccc(NC(=O)COC(=O)C2=COCCO2)cc1	-7	i	-20	2	8	x	-6	x
51	Cc1c(C(=O)NCc2cccnc2)oc2ccc(S(=O)(=O)N3CCCCCC3)cc12	-7	i	6	4	-3	-100	9	24
52	COC(=O)c1c(NC(=O)CC2Sc3ccc(C(F)(F)F)cc3NC2=O)sc(C)c1C (stereo not given)	x	i	7	-4	-4	x	-9	-6
53	CCCCN(CCCC)Cc1cc(=O)oc2cc(OC)c(Cl)cc12	-18	x	x	-3	0	-14	x	x
54	Cc1ccc(N2CC(C(=O)Nc3ccccc3OC(F)F)CC2=O)cc1 (stereo not given)	6	x	x	1	2	x	x	-20
55	Cc1ccc(C)c(NC(=O)COc2coc(CN3CCc4ccccc4C3)cc2=O)c1	-6	i	x	-4	-19	10	x	-11
56	CCN(CC)C(=O)CSc1nnnn1-c1ccc(F)c(Cl)c1	x	i	-6	1	-1	1	-1	-12
57	CN1CCN(CC(=O)N(C)c2nc(-c3ccccc3)cs2)CC1	-18	i	-11	-1	0	x	1	13
58	CC(C)CC(=O)OCC(=O)Nc1ccccc1Sc1ccccc1	x	i	7	0	0	-21	-14	-11

# Retrieved one by one from the list above:
no.	Structure	Yeast UUG start	Rce1 inhib	PABP FP inh	MT1-MMP act inh	MT1-MMP act inh RFP	Env fusion inh	eIF4H FP inh	CSC inhib
51	Cc1c(C(=O)NCc2cccnc2)oc2ccc(S(=O)(=O)N3CCCCCC3)cc12	-7	i	6	4	-3	-100	9	24
42	COc1cccc(CNCCc2c[nH]c3ccccc23)c1OCc1ccccc1F	0	i	0	-7	-17	79*	-8	53
45	CC(C)CC1Nc2ncnc(N3CCOCC3)c2N(Cc2ccc(Cl)cc2)C1=O (stereo not given)	-3&-2	x	x	7&3	0&3	-18&1	x	x
43	N#Cc1ccsc1NC(=O)CN1CCN(S(=O)(=O)c2ccc3ccccc3c2)CC1	-36	i	-5	-2	-2	x	21	2

# Screening results from PubChem BioAssay.
